# OX1R antag-1: antagonists of human orexin 1 receptor (OX1R) | Orexin/Hypocretin receptor type 1 (Homo sapiens), O43613 | OX1R-expressing cells, FRET antagonist read-out | inhibition, % at 6.6 µM | 330,000 tested, 1.8% active | AID 485270, 2010; in the data active means inhibition mostly above about 38%, no sharp cut-off; inactive means mostly below about 40%;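 further: 0% = agonist challenge alone and 100% = reference antagonist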
# Target sequence (O43613 whole entry, looked up): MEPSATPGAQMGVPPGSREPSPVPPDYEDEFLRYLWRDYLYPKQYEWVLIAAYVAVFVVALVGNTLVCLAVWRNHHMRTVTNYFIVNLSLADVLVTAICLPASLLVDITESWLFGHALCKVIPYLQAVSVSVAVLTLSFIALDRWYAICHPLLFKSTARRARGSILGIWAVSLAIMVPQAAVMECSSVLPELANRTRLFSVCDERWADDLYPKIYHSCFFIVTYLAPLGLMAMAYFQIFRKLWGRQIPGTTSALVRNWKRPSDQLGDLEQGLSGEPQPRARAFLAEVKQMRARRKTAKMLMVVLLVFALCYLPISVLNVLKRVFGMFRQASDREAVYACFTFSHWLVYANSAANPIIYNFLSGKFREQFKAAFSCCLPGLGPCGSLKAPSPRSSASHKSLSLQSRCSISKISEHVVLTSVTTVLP
# OX1R antag-2: OX1R (HCRTR1) antagonists, primary screen, fluorescence, CHO/OX1R cells, Fluo-8 calcium, orexin A | Fluo-8 calcium fluorescence | inhibition, % at 5 µM | 330,000 tested, 0.43% active | AID 434989, 2010;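 active means inhibition above its plate's threshold, mean inhibition of all tested compounds on the plate plus 3 SD, cut at about 37% in these data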;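 further: 0% = orexin A challenge wells and 100% = SB-334867-A antagonist wells; not every result past the cut was called active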
# * marks the source's active call; other numbers are inactive results. Some of the compounds tested; most or all hits stand in other tables.
SMILES	OX1R antag-1	OX1R antag-2
CCOc1ccc(C(=O)N(Cc2ccc(OC)cc2)Cc2cc3cc(OC)ccc3[nH]c2=O)cc1	7	-18
CCOC(=O)c1cc(-c2ccccc2)sc1NC(=O)CSc1nncs1	19	-10
c1ccc(-n2nc3ccccc3n2)cc1	12	3
COc1ccc2[nH]c(=O)c(CN(Cc3nnnn3Cc3ccccc3)CC3CCCO3)cc2c1 (stereo not drawn)	14	-15
CCCOc1ccc(N2CC(C(=O)NCCc3ccc(OC)c(OC)c3)CC2=O)cc1 (stereo not drawn)	0	-8
CCCN1Cc2cccc(C(=O)NCc3ccccc3OC)c2C1=O	16	-43
CS(=O)(=O)c1nc(S(=O)(=O)c2ccc(Cl)cc2)c(N2CCC(O)CC2)s1	3	-10
CCC(CC)NC(=O)COc1ccc(OC)cc1C=O	-1	-18
CCCCCC(=O)Nc1ccc(-c2nnc3n2CCCCC3)cc1	14	-11
CCOC(=O)C1CCN(C(=O)c2ccc(Cl)c(NC3=NC4CS(=O)(=O)CC4S3)c2)CC1 (stereo not drawn)	11	-23
O=C(COc1ccccc1[N+](=O)[O-])NCCCN1CCCC1=O	7	-13
Cc1ccc(C)c(NC(=O)CN(C)C(=O)C2CCN(S(=O)(=O)c3ccc4c(c3)OCCO4)CC2)c1	8	-29
Cc1cc(/C=C(\C#N)C(=O)O)c(C)n1-c1ccc(Br)cc1	11	3
CC(=O)c1sc(=S)n(-c2ccc(Cl)cc2)c1C	18	-16
Cc1nnc(SCc2cnc(-c3ccc(C(C)C)cc3)s2)n1C	6	-26
CC(C(=O)Nc1ccccc1-c1ccccc1)N1CCN(Cc2ccccc2)CC1 (stereo not drawn)	14	-28
Cc1cccc(NC(=S)NCCc2ccc3c(c2)OCCO3)c1C	11	-11
Cn1cnc([N+](=O)[O-])c1SCC(O)CN1CCCCC1 (stereo not drawn)	23	-14
CC(=O)c1cccc(NC(=O)N2CCCC2C(=O)Nc2ccccc2C)c1 (stereo not drawn)	1	-19
Cc1cccc(S(=O)(=O)Nc2ccc(-c3nc4ccc(C)cc4s3)cc2)c1	9	-11

# Ordered by number of heavy atoms (ascending): some entries from above.
SMILES	OX1R antag-1	OX1R antag-2
c1ccc(-n2nc3ccccc3n2)cc1	12	3
CC(=O)c1sc(=S)n(-c2ccc(Cl)cc2)c1C	18	-16
O=C(COc1ccccc1[N+](=O)[O-])NCCCN1CCCC1=O	7	-13
Cc1cccc(S(=O)(=O)Nc2ccc(-c3nc4ccc(C)cc4s3)cc2)c1	9	-11
COc1ccc2[nH]c(=O)c(CN(Cc3nnnn3Cc3ccccc3)CC3CCCO3)cc2c1 (stereo not drawn)	14	-15
CCOc1ccc(C(=O)N(Cc2ccc(OC)cc2)Cc2cc3cc(OC)ccc3[nH]c2=O)cc1	7	-18

# (more compounds)
SMILES	OX1R antag-1	OX1R antag-2
COc1cccc2c1cc1c(=O)n(CC(=O)NC3CCCCC3)nc(C)n12	2	-2
Cc1cccc(-c2c(O)cc(=O)[nH]c2Cl)c1	7	3
CN(CCCNC(=O)c1cn(C)c2ccc(S(=O)(=O)N(C)C)cc2c1=O)c1ccccc1	8	-8
Cc1nc(N)ncc1Sc1ccccc1	8	-1
O=c1/c(=C\c2ccc3c(c2)OCO3)sc2n1CCCN=2	24	-20
O=C(CC1C(=O)NCCN1Cc1ccc(F)cc1Cl)NCc1ccon1 (stereo not drawn)	6	-15
O=C(CCC1N=C2c3ccccc3N=C(SCc3ccccc3Cl)N2C1=O)NCc1ccco1 (stereo not drawn)	19	-14
CCCC1(c2ccccc2)NC(=O)N(CC(=O)NCc2ccc(C)cc2)C1=O (stereo not drawn)	11	-28
C=CCN1C(=O)C(O)(CC(=O)c2ccc(OC)cc2OC)c2cc(Br)ccc21 (stereo not drawn)	8	-38
Cc1cc(CNC(=O)COc2ccc([N+](=O)[O-])cc2)c2ccccc2n1	36	-21
Cc1ccc(NC(=O)Cn2cnc([N+](=O)[O-])c2)cc1C	21	-2
O=C1CCCN1c1ccc(S(=O)(=O)NCCc2ccc(Cl)cc2)cc1	8	-7
Clc1cccc(C2CCN(Cc3nc(COc4ccccc4)no3)C2)c1 (stereo not drawn)	18	-23
CCCN(CCC(=O)Nc1cc(OC)cc(OC)c1)CC1CC1	30	-1
CCOC(=O)c1ccc(N2C(=O)C(C)=C(C)C2=O)cc1	60	-27
O=C(O)c1cccc(CSc2ncn[nH]2)c1	8	3
COc1ccc(-n2nc(C(=O)NCC(=O)N3CCN(Cc4ccccc4)CC3)c3ccccc3c2=O)c(OC)c1	13	-36
CCCCNC(=O)CCSc1nc2nc(C)cc(C)n2n1	4	-7
N#C/C(=C/c1ccco1)c1nc2ccccc2s1	75	-14
CCc1nc2ccccc2n1Cc1ccccc1OC	21	-20
CN(C)/C=N/c1nc2ccc3c(c2s1)CCCC3	39	16
COc1ccc(NS(=O)(=O)c2cc3c4c(c2)CCN4C(=O)CC3)cc1OC	26	-13
NS(=O)(=O)c1ccc(NNC(=O)c2cccs2)cc1	-1	5
CC(NCCO)C(=O)C12CC3CC(CC(C3)C1)C2 (stereo not drawn)	4	-14
C/C=C(\C)CN1CCC(n2nccc2NC(=O)c2ccc(OC)cc2)CC1	10	-10
O=C(CCC(=O)NNC(=O)COc1ccc(Br)cc1)NCc1ccccc1	8	-12
COC(=O)c1c(-c2cccc(C)c2)csc1NC(=O)C1CCCO1 (stereo not drawn)	20	-20
COC(=O)CN1C(=O)C(C)=C(c2ccc(C)cc2)S1(=O)=O	6	-2
Cc1ccc(/C=C/C(=O)OCC(=O)Nc2ccc3[nH]c(=O)[nH]c3c2)o1	9	-6
CCN1C(=O)/C(=C\C=C2/C=CC=CN2CC)SC1=S	32	-2
NS(=O)(=O)c1cccc(NC(=O)COC(=O)COc2ccc3ccccc3c2)c1	10	-7
CCCCC(=O)Nc1nnc(/C=C/c2ccc(OC)cc2)s1	2	-8
CN(c1ccccc1)c1nc(N)c([N+](=O)[O-])c(NCCO)n1	18	-12
Cc1ccc(CCNS(=O)(=O)c2cc3c(cc2C)NC(=O)CO3)cc1	3	-15
COc1ccc(N=C2O/C(=C/c3sc(=S)n(CC4CCCO4)c3O)N=C2C#N)cc1 (stereo not drawn)	12	0
CCOC(=O)c1cccc(-c2ccc(C=O)o2)c1	6	-8
CN(Cc1ccc(F)cc1)C(=O)CNC(=O)c1cccs1	-1	2
CN(C)c1ccc2c(O)cc(=O)n(C)c2c1	6	-11
O=C(NCc1ccccn1)C(=O)Nc1cccc2ccccc12	27	-15
Cc1ccc(C(=O)NCCCNCCCN(C)C)cn1	6	-7

# Arranged by the number under OX1R antag-1 (descending): 4 from the list above.
SMILES	OX1R antag-1	OX1R antag-2
CN(c1ccccc1)c1nc(N)c([N+](=O)[O-])c(NCCO)n1	18	-12
COc1ccc(N=C2O/C(=C/c3sc(=S)n(CC4CCCO4)c3O)N=C2C#N)cc1 (stereo not drawn)	12	0
O=C(CCC(=O)NNC(=O)COc1ccc(Br)cc1)NCc1ccccc1	8	-12
CC(NCCO)C(=O)C12CC3CC(CC(C3)C1)C2 (stereo not drawn)	4	-14

# Following part.
SMILES	OX1R antag-1	OX1R antag-2
CCN(CC)S(=O)(=O)c1ccc(Nc2cc(C)nc3ncnn23)cc1	0	1
COc1ccc(-n2nc(C(=O)NCC(=O)N3CCCCCC3)c3ccccc3c2=O)cc1	31	-36
O=C1CC(C(=O)NCc2ccccc2)N=C(N2CCCCC2)N1 (stereo not drawn)	12	-3
CS(=O)(=O)N1CCN(Cc2ccc(C(F)(F)F)cc2)CC1	23	-20
O=C1C(Cl)=C(N2CCOCC2)C(=O)N1c1ccccc1F	4	-17
O=C(Nc1ccc(N2CCN(C(=O)c3ccccc3)CC2)c(Cl)c1)c1cccnc1	27	-4
COCCNC(=O)c1ccccc1NC(=O)Nc1ccccc1	14	-12
CCc1c(C(=O)NCc2ccc3c(c2)OCO3)[nH]c(C)c1C(C)=O	7	-8
COc1cc(/C=C2/C(=O)ON=C2C)ccc1OCc1cccc(F)c1	7	-8
COc1ccccc1NC1=NC(CO)(CO)CS1	2	-8
COc1ccc(S(=O)(=O)N2CCN(C(=O)NCc3ccc(C)cc3)CC2)cc1	15	-13
O=S(=O)(Cc1cc(N2CCOCC2)nc(-c2ccccn2)n1)c1ccccc1	-3	-25
CCc1nnc(NC(=O)CCC(=O)N2CCCC(O)C2)s1 (stereo not drawn)	11	-3
CCOC(=O)C1CCCN(Cc2cc(OC)c(O)c(OC)c2)C1 (stereo not drawn)	6	-11
CCOC(=O)C(=O)N1CCC(Cc2ccccc2)CC1	16	-13
COC(=O)c1cc(=O)n(Cc2ccc(F)cc2)c(=NCc2ccc(F)cc2)s1	8	-6
c1ccc(-c2noc(-c3ccco3)n2)nc1	7	3
COc1ccc(NC(=O)c2cccc3c2C(=O)c2ccc(-c4cnc(OC)nc4)cc2S3(=O)=O)cc1	13	-1
COCCCn1c(=O)c2sccc2n2c(CCCC(=O)N3CCN(c4ccccn4)CC3)nnc12	17	-9
CCN1CCc2c(sc(NC(=O)c3ccc(C(=O)c4ccccc4)cc3)c2C(N)=O)C1	27	-18
COc1cc(OCC(=O)NC(C)C)cc2c1C(=O)O[C@@H](C)CCCC(=O)CCCCC2	-3	-2
COc1ccc(-c2ocnc2C(=O)Nc2ccc(N3CCOCC3)cc2N2CCOCC2)cc1OC	5	-12
CC1(CC(=O)O)SC(=O)NC1=O (stereo not drawn)	10	-40
O=C(c1ccc(CSc2ccccc2)cc1)N1CCCCCC1	18	-25
CC(C)(C)c1ccc(C(=O)NCC(=O)OCC(=O)N2CCCC2)cc1	9	14
CCC(C)NC(=O)c1cn(CC)c2ccc(S(=O)(=O)N(C)C)cc2c1=O (stereo not drawn)	16	4
CN(C)C(=O)CSc1ccccc1C(=O)OCC(=O)NC1CC1	7	-20
O=C1CC(c2ccccc2)CCc2sccc2N1 (stereo not drawn)	13	-16
C=CC1=C2C=C(C3CC3)N(CC3CC3)C=C2C(=O)C(C)(OC(=O)c2ccco2)C1=O (stereo not drawn)	28	0
Cc1cccc(NC(=S)NC2CC3CCC(C2)N3Cc2ccco2)c1C (stereo not drawn)	9	-20
CCC(C)C(NC(=O)CCC(=O)OCC(=O)[C@@]1(O)CCC2[C@@H]3CCC4=CC(=O)C=C[C@]4(C)C3[C@@H](O)C[C@@]21C)C(=O)O (stereo partly drawn)	6	-6
CC(=O)Nc1ccc(NC(=O)c2ccc(COc3ccc(C)cc3)o2)cc1	8	3
Cc1cc(NC(=O)C2CC(=O)N(c3ccccc3Cl)C2)no1 (stereo not drawn)	9	-14
Cc1ccc(S(=O)(=O)N2CCOCC2)cc1NC(=O)CSCc1c(C)noc1C	4	-6
COc1cc2c(cc1Cl)C(=O)C(F)(c1ccccc1)C(=O)N2 (stereo not drawn)	6	-6
O=C(O/N=C1\CCCc2ccccc21)c1ccc(F)cc1	2	-28
CC(=O)NC(C)c1cc(Cl)c2cccnc2c1O (stereo not drawn)	4	-15
O=C(NCCSCc1ccc(Cl)cc1Cl)c1ccc(CN2CCOCC2)cc1	9	-26
COc1cc(/C=N/N=C(/N)c2nonc2N)cc(Br)c1OCc1cccc(C)c1	32	-28
CC(C)(C)OC(=O)n1cc(CCO)c2ccccc21	5	-25
CCOc1ccc(NC(=O)Cn2cc(C(C)=O)c3ccccc32)cc1	-3	-16
Cc1cc(NC(=O)CCSc2ccc(Cl)cc2)no1	9	-11
Cc1nc(CN2CCCC2=NC#N)n(-c2ccccc2)n1	4	8
O=C(NCCN1CCN(Cc2ccccc2)CC1)C1c2ccccc2C(=O)N2CCc3ccccc3C12 (stereo not drawn)	24	-5
CCn1ccc(=N)cc1	8	-16
C#CCOCCOCCOCCNc1nc(N2CCN(C(=O)[C@H]([C@@H](C)CC)n3cc([C@@H](N)Cc4ccc(O)cc4)nn3)CC2)nc(N2CCN(C(=O)[C@H](Cc3cc4ccccc4[nH]3)n3cc([C@@H](N)CC(C)C)nn3)CC2)n1	9	4
COCCN(C(=O)CNC(=O)c1ccco1)C(C(=O)NC1CCCCC1)c1cccc(OC)c1 (stereo not drawn)	14	-2
O=[N+]([O-])c1ccc(Nc2nc(N/N=C\c3ccc4c(c3)OCO4)nc(N3CCCCC3)n2)cc1	6	-11
O=C(NNC(=O)c1ccc(=O)[nH]c1)c1ccc(NS(=O)(=O)c2cccs2)cc1	3	4
CCN(CC)C(=O)Cn1cc(C(=O)C(=O)NCC2COc3ccccc3O2)c2ccccc21 (stereo not drawn)	32	-24
CC(=O)Nc1nc(-c2ccc(Br)s2)cs1	12	-4
CCOC(=O)N1CCC(NC(=O)Cn2cc3c(n2)CCCC3)CC1	3	-6
CCc1ccc(Nc2nnc(SC(C)C(=O)NC3CC3)s2)cc1 (stereo not drawn)	3	-33
CCOc1ccc(-n2c(=O)[nH]cc(C(=O)N3CCc4ccccc43)c2=O)cc1	5	-6
CC1CN(S(=O)(=O)c2cc(C(=O)N3CCCCC3C)ccc2Cl)CC(C)O1 (stereo not drawn)	4	-16
CCOC(=O)C1CCCN(C(=O)CCNS(=O)(=O)c2ccc3c(c2)CCC(=O)N3)C1 (stereo not drawn)	6	-4
CC1(C)C2CCC1(C)C(OCCNCCOC(=O)Nc1ccccc1)C2 (stereo not drawn)	11	-24
CC(C)OC(=O)c1cccc(C(=O)Oc2ccccc2)n1	3	-2
Cc1ccc(CN2CCNC(=O)C2CC(=O)O)cc1 (stereo not drawn)	6	2
